# Assay outcomes as filed in PubChem.
# VDR inhibitor: vitamin D3 receptor (human) inhibition. P11473. VDR-SRC2-3 peptide fluorescence polarization, 2 h. Potency, µM, for inactives: max response, negative = inhibition, hits mostly inhibitors. 0.93% of 400,000 active; active = well fitted inhibition curve with a large enough effect; inconclusive = small, poorly fitted or top-dose-only effect, or another doubt; inactive = no such curve, though single readings can be large or run the other way; note: series mostly up to about 120 µM
# Target sequence (P11473 whole entry, looked up): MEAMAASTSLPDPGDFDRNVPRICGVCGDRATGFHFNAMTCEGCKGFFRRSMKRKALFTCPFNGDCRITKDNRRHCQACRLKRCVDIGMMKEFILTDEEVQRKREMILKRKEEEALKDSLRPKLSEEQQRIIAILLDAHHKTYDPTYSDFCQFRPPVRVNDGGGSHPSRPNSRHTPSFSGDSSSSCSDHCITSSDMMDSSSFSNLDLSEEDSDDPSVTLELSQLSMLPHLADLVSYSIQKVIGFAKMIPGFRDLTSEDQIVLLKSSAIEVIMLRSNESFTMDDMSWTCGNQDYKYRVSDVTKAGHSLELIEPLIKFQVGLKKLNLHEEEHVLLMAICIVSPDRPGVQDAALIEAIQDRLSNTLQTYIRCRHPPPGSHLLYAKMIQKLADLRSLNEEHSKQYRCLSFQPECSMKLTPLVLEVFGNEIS
#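 Fluorescence polarization assay measuring small-molecule disruption of VDR binding to the coregulator peptide SRC2-3. Compounds were pin-transferred (23 nl) into the reagent mix and incubated 2 h at room temperature before reading.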
# * = called active by the depositor; ? = inconclusive; & = joins results of further samples. % is set by controls: 0 for no effect and ±100 for the full control effect; potency is the fitted concentration of half-maximal effect.
SMILES,VDR inhibitor
Cn1c(=O)[nH]c(=O)c2c1nc(CN1CCN(c3ccc(F)cc3)CC1)n2CCc1ccccc1,1%
COc1ccc(/C=C2\SC(=O)N(CCNC(=O)Cc3coc4cc(OC)ccc34)C2=O)cc1,-24%
COc1ccc(-n2nc(C(=O)Nc3cc(C)c(Cl)cc3OC)c3c4ccccc4n(C)c3c2=O)cc1,-9%
CN1CCN(C2CCN(c3cccc(Cl)c3)CC2)CC1CCO (centres undefined),-6%
CC(=O)NN1C(=O)c2ccc(Oc3cccc([N+](=O)[O-])c3)cc2C1=O,3%
COc1ccc(NS(=O)(=O)c2cc(N/C(=N\S(=O)(=O)c3ccccc3)c3ccc(F)cc3)ccc2Cl)cc1,-10%
CC1(C)Cc2cccc(OCC(=O)Nc3ccc(OCC(N)=O)cc3)c2O1,19%
Nc1nc(NCCc2ccccc2)nc(NCc2ccccc2)c1[N+](=O)[O-],?
O=C(NC1CCN(Cc2ccccc2)CC1)c1ccccc1NS(=O)(=O)c1ccc(F)c(F)c1,3%
CN(CC(=O)Nc1c(Cl)cccc1Cl)C(=O)CCCN1C(=O)c2ccccc2C1=O,14%
CC[C@]12c3[nH]c4ccc(Cl)cc4c3CCN1C(=O)[C@@H](CC(=O)NCc1cccc(C(F)(F)F)c1)C[C@@H]2C(=O)N1CCN(C(=O)c2ccco2)CC1,-6%
O=C(COc1cccnc1[N+](=O)[O-])Nc1ccc(Cl)c(S(=O)(=O)N2CCOCC2)c1,-12%
O=C(CCl)Nc1ccc(N2CCCCCC2)cc1,10%
COc1ccccc1C(=O)Nc1ccc2c(c1)OCO2,3%
CCOC(=O)COc1coc(CN2CCN(c3ccccc3)CC2)cc1=O,-19%
Cc1cccc(OCC(=O)NCC2CCCO2)c1C (centres undefined),7%
Cc1ccc(NC(=O)CCCn2nc(C)c3c(C)n(-c4ccccc4)nc3c2=O)c(Cl)c1,-8%&4%
CCOC(=O)Cc1c(C)c2c(O)cc(O)cc2oc1=O,-2%
Cc1cccc(NC(=O)C(Cc2ccccc2)n2cccc2)c1C (centres undefined),-8%
CCOC(=O)c1ccc(NC(=O)CSc2nc(C)nc3c2c(=O)n(C)c(=O)n3C)cc1,-3%
O=C(Cc1c[nH]c2ccccc12)OCC(=O)c1ccccc1,-2%
CCCc1nc(NCc2ccccc2)c(C#N)c2c1CCCC2,-10%
c1ccc(Nc2ccccc2)cc1,2%
CCCCNC(=O)C(CC)Sc1nc2sc(C(=O)OC)c(C)c2c(=O)n1N (centres undefined),5%
O=[N+]([O-])c1ccc(NN=Cc2cccc3ccccc23)nc1,12%
COc1ccccc1OCC(=O)Nc1cccc(S(=O)(=O)NC2=NCCCCC2)c1,1%
Cc1ccccc1CSc1ncc(Cl)c(C(=O)Nc2nc3ccc(F)cc3s2)n1,6%
COC(=O)CSc1nc2ccc(NC(=O)CSc3nnnn3Cc3ccccc3)cc2s1,13%
O=C(O)CCCC(=O)N1CCC(C(O)(c2ccccc2)c2ccccc2)CC1,-3%
C#CCOCCOCCOCCNc1nc(N2CCN(C(=O)C([C@@H](C)O)n3cc([C@@H](N)CCCCN)nn3)CC2)nc(N2CCN(C(=O)[C@H](CCCCN)n3cc([C@@H](N)CC(N)=O)nn3)CC2)n1 (some centres undefined),9%
COc1ccc(NC(=S)NCC(O)c2ccccc2)c(OC)c1 (centres undefined),-18%
CCCOc1ccc(N2CC(C(=O)Nc3cccc(Cl)c3Cl)CC2=O)cc1 (centres undefined),-19%
CC(=O)Nc1ccc(S(=O)(=O)n2nc(C)cc2C)cc1,-14%
COc1cccc(C(=O)N2CCc3cc(OC)c(OC)cc3C2COc2ccc3c(C)cc(=O)oc3c2)c1 (centres undefined),-6%
CCOc1ccc(NC(=O)CN(C)C(=O)Cn2c(=O)cnc3ccccc32)cc1OCC,-15%
COc1ccccc1NC(=O)Cc1noc(CN(C)Cc2cccs2)n1,13%
O=C(NC1(C(F)(F)F)NC(=O)N(CCc2ccccc2)C1=O)c1ccc(Cl)cc1 (centres undefined),-11%
CN(C)S(=O)(=O)c1ccc(N=Cc2c(C(F)(F)F)[nH]n(C)c2=O)cc1,-12%
O=C(COC(=O)c1ccc[n+]([O-])c1)Nc1cc([N+](=O)[O-])ccc1Cl,-1%
Cc1ccc(/C=C2\SC(=S)N(CCC(=O)N3CCOCC3)C2=O)cc1,-12%
Cn1c(=O)cc(OCCCC(=O)NCCN2CCN(c3ccccc3F)CC2)c2ccccc21,3%
COc1ccc(CNC(=O)CN2C(=O)NC(c3ccccc3)(c3ccccc3)C2=O)cc1,3%
CCOC(=O)N1CCC(NC(=O)CCC(=O)N2CCOc3ccc(C)cc32)CC1,-5%
CCOC(=O)c1c(C)[nH]c(C(=O)COC(=O)c2ccc(F)c(S(=O)(=O)N3CCOCC3)c2)c1C,-6%
COc1ccc(C(=O)NCCS(=O)(=O)NC2CCCC2)cc1,-13%
COc1ccc(Nc2oc(-c3ccc(OC)cc3)nc2C#N)cc1,-12%
Cc1cc(C)cc(Nc2nc3c(S(=O)(=O)c4ccccc4)nnn3c3ccccc23)c1,-19%
O=C(CSC(=S)N1CCCC1)Nc1cc2c(cc1Br)OCCO2,-9%
CC(C)C(=O)SCCCCCCC(=O)Nc1nc(-c2ccccc2)cs1,2%
COc1ccc(/C=C(\C#N)C(=O)NCc2cccs2)cc1OC,-22%
Cc1ccc(S(=O)(=O)CCC(=O)OCC(=O)N(C)c2ccccc2)cc1,2%
COC(=O)c1c(SCC(=O)Nc2cc(OC)cc(OC)c2)[nH]c2ccc(C)cc2c1=O,-4%
Cn1nc(-c2ccc(Cl)cc2)c2cc(C(=O)N3CCN(c4ccccc4)CC3)sc21,-18%
CC(=O)Nc1ccc(S(=O)(=O)NCC(=O)OCC(=O)c2ccc[nH]2)cc1,3%
CCN(CC(=O)Nc1c(F)cccc1F)C(=O)CCCOc1ccc(OC)cc1,-14%
COc1ccc(-c2csc3nc(-c4ccccc4)oc(=O)c23)cc1OC,-17%&2%
Cc1ccc(NS(=O)(=O)c2ccc(CCC(=O)NCc3ccccn3)cc2)cc1,-8%
O=C(Nc1ccc(-n2cccn2)cc1)C1CCN(Cc2ccsc2)CC1,-1%
COc1ccc(/C=N/N2C(=O)CSC2=S)cc1Br,-11%
COc1ccccc1NC(=O)CN1CCN(c2ccccn2)CC1,-7%
# (continued)
SMILES,VDR inhibitor
FC(F)(F)c1nc(NCc2ccccc2)c2nnn(Cc3ccccc3)c2n1,-3%
O=C(NCc1ccccc1F)c1cccc(NC(=O)N2CCSc3ncccc32)c1,6%
CCCSc1nnc(-c2c[nH]c3ccccc23)n1CC,-9%
NC(=O)C1CC(=O)N(c2ccc(OCC(=O)Nc3ccc(F)cc3)cc2)C1 (centres undefined),7%
Cc1cccc(/C=N\NC(=O)c2csnn2)c1,-7%
O=C(COC(=O)CNS(=O)(=O)c1c(F)cccc1F)NC(=O)NC1CCCCC1,-16%
Cc1cccc(C)c1N1CCN(S(=O)(=O)N(C)C)CC1,-13%
Cc1ccc(S(=O)(=O)OCC(=O)Nc2ccc(C(=O)O)c(O)c2)cc1,-27%
CCOc1cccc(-c2csc(C3COc4ccccc4O3)n2)c1 (centres undefined),-9%
COc1ccc(S(=O)(=O)Cc2ccc(C(=O)NC3CCC(C)CC3)o2)cc1 (centres undefined),-8%
C=CCSc1nnc(-c2ccccc2NC(C)=O)c(=O)[nH]1,15%
CCCCN(C(=O)c1ccc(N2C(=O)c3ccccc3C2=O)cc1)c1c(N)n(CC(C)C)c(=O)[nH]c1=O,-30%

# Some of the entries so far, as labelled records.
O=C(NCc1ccccc1F)c1cccc(NC(=O)N2CCSc3ncccc32)c1
  VDR inhibitor: 6%

CCCSc1nnc(-c2c[nH]c3ccccc23)n1CC
  VDR inhibitor: -9%

NC(=O)C1CC(=O)N(c2ccc(OCC(=O)Nc3ccc(F)cc3)cc2)C1 (centres undefined)
  VDR inhibitor: 7%

Cc1cccc(/C=N\NC(=O)c2csnn2)c1
  VDR inhibitor: -7%

# Next section:
SMILES,VDR inhibitor
Cc1ccc(C(=O)Nc2nn(C)c3cccc(F)c23)cc1,11%
Cc1ccc(S(=O)(=O)N2CCN(C(=O)CSc3nnnn3C)C2)cc1,2%
CC(C)C[C@@H](CC(=O)N[C@@H](CCCN)CC(=O)N[C@@H]1CCCC[C@H]1C(=O)N[C@H](CC(=O)N[C@@H](CCC(=O)O)CC(=O)O)CC(C)C)NC(=O)[C@@H]1CCCC[C@H]1N,-6%
COc1ccccc1CCNC(=O)C(=O)NCC1OCCN1S(=O)(=O)c1ccc2c(c1)OCCO2 (centres undefined),22%
COc1cccc(CN(C)C(=O)CCC(=O)c2cc(Br)ccc2OC)c1,0%
CC(=O)Nc1ccc(S(=O)(=O)Nc2ccccn2)cc1,5%
Cc1cccc(NC(=O)CCC(=O)N2CCOCC2)n1,-6%
O=C(CCC1CCCN(C(=O)CC2=CCCCC2)C1)N1CCN(c2ccccn2)CC1 (centres undefined),79µM*
CC(C)(C)N(Cc1ccccc1)C(=O)COC(=O)c1ccccc1SCC(=O)N1CCCC1,9%
Cc1ccc(NC(=O)C(=O)NCC(c2ccc3c(c2)OCO3)N2CCN(C)CC2)cc1C (centres undefined),-7%
CCc1ccc(NC(=O)Nc2cccs2)cc1,13%
COc1ccc(CCNC(=O)COC(=O)c2ccc(C)s2)cc1,-15%
Fc1ccc2[nH]c3c(NCc4ccco4)ncnc3c2c1,-8%
O=C(CN(Cc1ccccc1Cl)C(=O)c1csnn1)NCc1ccc2c(c1)OCO2,2%
COc1ccc(NC(=O)c2ccco2)cc1NC(=O)COc1ccccc1Cl,-3%
Cc1c(C(=O)N/N=C/c2ccc(N3CCOCC3)cc2)nc2ccccn12,-8%
CCn1c(C)cc(=O)cc1-c1ccc(Cl)cc1,0%
Cc1cc(C)c(O)c(CN(C)Cc2cc(Cl)cc(Cl)c2O)c1,4%
Cc1ccc(-c2nnc(N(C)C(=O)C3CCCO3)s2)cn1 (centres undefined),-2%
COc1ccc(Cl)cc1NC(=O)Cn1nc(C(F)(F)F)c2c1CCCC2,-12%
O=C(CSCc1c(Cl)cccc1Cl)Nc1ccccc1-c1ccccc1,-8%
Cc1cccc(C(=O)Nc2nc3ccc(S(C)(=O)=O)cc3s2)c1,-12%
CC(C)(C)OC(=O)N1CCC(CNC(=O)c2cccs2)CC1,9%
CCOC(=O)N1CCN(C(=O)c2nc3ccccc3s2)CC1,13%

# Random excerpt: 6 entries already listed
SMILES,VDR inhibitor
CCOC(=O)N1CCN(C(=O)c2nc3ccccc3s2)CC1,13%
Cc1c(C(=O)N/N=C/c2ccc(N3CCOCC3)cc2)nc2ccccn12,-8%
CCn1c(C)cc(=O)cc1-c1ccc(Cl)cc1,0%
Fc1ccc2[nH]c3c(NCc4ccco4)ncnc3c2c1,-8%
O=C(CN(Cc1ccccc1Cl)C(=O)c1csnn1)NCc1ccc2c(c1)OCO2,2%
Cc1cc(C)c(O)c(CN(C)Cc2cc(Cl)cc(Cl)c2O)c1,4%

# (further entries)
SMILES,VDR inhibitor
COc1cccc(C(=O)NNC(=O)c2ccc3ccccc3c2O)c1,-26%
O=C(Cn1ccccc1=O)NCc1ccc(F)cc1,9%
O=C(CSc1ncc2c(n1)-c1cc(Cl)ccc1N(Cc1ccccc1)S2(=O)=O)NCCc1ccccc1,1%
CC(C)(C)[C@H]1C=C(C(=O)NCc2ccccc2)O[C@@H](OCc2ccc(CO)cc2)C1,1%
COc1ccc(CNc2nc3ccccc3n2CCN2CCOCC2)cc1,-19%
O=C(NCCOc1ccccc1)c1ccc2n[nH]nc2c1,10%
Cc1cccc(N2CCN(c3ccc(N4C(=O)CCCC4=O)cc3[N+](=O)[O-])CC2C)c1 (centres undefined),11%
Clc1ccc(SCCCCN2CCNCC2)cc1,-11%
CC(=O)Nc1nc(C)c(-c2csc(Nc3cccc(C(C)=O)c3)n2)s1,-13%
CCN(CC)CCCNC(=O)Cn1cc2c(n1)CCC(C)C2 (centres undefined),-26%
O=C(Nc1ccc(-c2nc3ccccc3[nH]2)cc1)c1ccc(N2C(=O)CCC2=O)cc1,10%
Cc1sc(NC(=S)NC(=O)c2ccc(C(C)(C)C)cc2)c(C#N)c1C,8%
CN1CCN(C(CNC(=O)C(=O)Nc2cccc(Cl)c2)c2ccc3c(c2)OCO3)CC1 (centres undefined),13%
Cc1ccc(S(=O)(=O)NCC(=O)N(CCc2ccccc2)CC(=O)NCc2ccco2)cc1,-19%
CC1(C)C(=O)Nc2ccccc2N1C(=O)CN1C(=O)c2ccccc2C1=O,-14%
Cc1ccc(C(=O)CNc2cc(C)ccc2C)cc1,?
NC(=O)C1CCN(C(=O)CCC(=O)c2ccc(F)cc2)CC1,-10%
O=C(Nc1cccc(CCc2ccccn2)c1)c1cc(F)c(F)cc1Cl,-6%
O=S(=O)(c1ccc(OC(F)(F)F)cc1)N1CCC(O)(c2cccc(C(F)(F)F)c2)CC1,?
CN(Cc1ccccc1)C(=O)CCSc1nc(-c2ccc3c(c2)OCO3)cc(C(F)(F)F)n1,-1%
CN1C(=O)C(C)(C)c2cc(S(=O)(=O)N3CCC(C(=O)Nc4ccc(Cl)cc4)CC3)ccc21,4%
Cc1cc(N2CCOCC2)nc2ccc(NC(=S)NCCC(C)C)cc12,4%
O=C(Nc1ccc(Cl)cc1)Nc1ccccn1,2%
CSc1ccccc1NC(=O)C1=CC(c2ccc(C)cc2)=NS(=O)(=O)N1C,-4%
Cc1nc(/N=C(\N)NC(=O)N2c3ccccc3Sc3ccccc32)nc2ccccc12,-8%
Cc1ccc(C)c(N2CCN(S(=O)(=O)c3ccc4[nH]c5c(c4c3)CCCC5)CC2)c1,10%
CCc1ccc(S(=O)(=O)c2nnn3c2nc(Nc2cc(OC)cc(OC)c2)c2cc(Cl)ccc23)cc1,5%
COc1ccccc1-c1cc(N)n[nH]1,-2%

# An excerpt; count on the stated rates, not on these rows.
